VDR inh: blocks the human vitamin D receptor | P11473 | VDR-SRC2-3 peptide fluorescence polarization, 2 h | Potency, µM, without a hit: max response, negative = inhibition, hits mostly inhibitors | 0.93% of 400,000 active | AID 504847; active = well fitted inhibition curve with a large enough effect; inconclusive = small, poorly fitted or top-dose-only effect, or another doubt; inactive = no such curve, though single readings can be large or run the other way; note: series mostly up to about 120 µM
Target sequence (P11473 whole entry, looked up): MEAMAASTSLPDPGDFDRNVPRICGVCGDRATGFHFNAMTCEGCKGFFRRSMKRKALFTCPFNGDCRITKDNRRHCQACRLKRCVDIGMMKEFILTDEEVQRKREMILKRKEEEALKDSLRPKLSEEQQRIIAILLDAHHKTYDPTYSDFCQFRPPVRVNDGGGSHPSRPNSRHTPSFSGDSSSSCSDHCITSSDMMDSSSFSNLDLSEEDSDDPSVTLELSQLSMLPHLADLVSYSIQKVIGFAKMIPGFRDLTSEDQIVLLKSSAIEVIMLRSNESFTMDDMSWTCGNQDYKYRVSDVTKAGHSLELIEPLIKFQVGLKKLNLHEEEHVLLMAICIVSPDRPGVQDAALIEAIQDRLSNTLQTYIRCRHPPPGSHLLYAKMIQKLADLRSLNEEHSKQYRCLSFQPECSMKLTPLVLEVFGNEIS
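After 23 nl compound addition and a short centrifugation, plates sat for 2 hours at ambient temperature; polarization of fluorescence then indicated loss of VDR binding to peptide SRC2-3.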
* marks the source's active call; other numbers are inactive results; ? = inconclusive; & = joins results of further samples. % is set by controls: 0 for no effect and ±100 for the full control effect; potency is the fitted concentration of half-maximal effect.

VDR inh	compound
-10%	COc1ccc(-c2csc3ncnc(N4CCN(CCO)CC4)c23)cc1
-2%	Nc1oc2ccccc2c1C(=O)Cc1ccccc1O[C@@H]1O[C@H](CO)[C@@H](O)[C@H](O)[C@H]1O
-15%	NC(=O)CSc1nnc(-c2ccccn2)n1N
16%	COc1ccc(S(=O)(=O)N2C3CCC2CC(NC(=O)C2CC2)C3)cc1 (centres undefined)
?	COc1ccc(-n2c(-c3cccc(OC)c3)nc(=S)c3c2CCCC3)cc1
-22%	CC(C)c1c(C(=O)N/N=C/c2cccc3ccccc23)nnn1-c1nonc1N
-27%	COc1ccc(CCNC(=O)C(=O)NCc2ccc(Cl)cc2)cc1OC
9%	CCOc1ccccc1NC(=O)Cn1c(=O)n(Cc2nc(C)no2)c(=O)c2ccccc21
-2%	CCOC(=O)C1CCN(c2ncnc3c(C)csc23)CC1
-16%	CCC/C(O)=C1\C(=O)CCCC1=NCCc1c(C)[nH]c2ccc(C)cc12
-11%	Cc1ccc(C(=O)CSc2nnc(CNc3nc(-c4ccccc4)cs3)n2C)cc1
-9%	CC(NC(=O)c1ccccc1Cl)C(=O)OCc1cn2cc(Cl)ccc2n1 (centres undefined)
-6%	O=C(Nc1ccc2c(c1)OCCO2)C1CCN(S(=O)(=O)c2cccs2)CC1
-7%	CCCn1c(C2CCCN2c2nc(-c3ccc(C)cc3)cs2)nc2cc(Cl)c(N3CCCCC3)cc21 (centres undefined)
3%	Cc1cc(NCc2ccccc2)n2ncnc2n1
4%	O=C(O)CSc1ncnc2sc(-c3ccccc3)cc12
-1%	Cc1ccn2c(CNCCn3nc(C)cc3C)c(C(=O)N3CCCCCC3)nc2c1
-8%	CCOC(=O)c1c(C)[nH]c(NC(=O)NNC(=O)c2ccc(OC)cc2)c1C
-11%	CCOc1ccc(C(=O)N/N=C(\c2ccccc2)c2ccccn2)cc1
-12%	CCC(C)Sc1ccc([C@H]2N[C@@](CC(C)C)(C(=O)OC)[C@H]3C(=O)N(C)C(=O)[C@@H]23)cc1 (some centres undefined)
-11%	Cc1ccc(-c2nc3c(c(=O)[nH]c(=O)n3Cc3ccccc3)n2Cc2ccccc2)o1
-1%	COc1ccc(CNC(=O)CC2Sc3ccccc3NC2=O)cc1 (centres undefined)
-10%	CC(C)Cc1ccc(C2=CSC3=NCCN23)cc1
12%	CC(=O)N1N=C(c2ccc3nccnc3c2)CC1c1ccccc1 (centres undefined)

Brought forward from above: two compounds; new compounds follow.
VDR inh	compound
-10%	CC(C)Cc1ccc(C2=CSC3=NCCN23)cc1
12%	CC(=O)N1N=C(c2ccc3nccnc3c2)CC1c1ccccc1 (centres undefined)
4%	O=C(Nc1ccc(Cc2ccncc2)cc1)c1cc([N+](=O)[O-])ccc1N1CCOCC1
12%	Nc1nnc(SCC(=O)Nc2ccc(S(=O)(=O)N3CCOCC3)cc2)s1
-11%	O=C(Cn1cnc2c(nnn2Cc2ccc(F)cc2)c1=O)N1CCCc2ccccc21
-7%	C=CCN1C(=O)[C@@H]2Cc3c([nH]c4ccccc34)C(c3cc(OC)c(OC)c(OC)c3)N2C1=S (some centres undefined)
-12%	CCN(CCn1cccn1)C(=O)c1cc(COc2cccc3cccnc23)on1
?	COC(=O)C1CCN(CC(=O)Nc2sc3c(c2C#N)CCC3)CC1
-8%	C/C(=N\NC(=O)c1ccncc1)c1ccc(N2CCOCC2)cc1
-7%	COCc1ccc(C(=O)N2CCCCC2C(=O)Nc2ccc(-n3nc(C)cc3C)cc2)o1 (centres undefined)
-2%	O=C(NCCOc1ccc(Cl)cc1)C(=O)NCC1CCCO1 (centres undefined)
-4%	Cc1cccc(C)c1NC(=O)Cn1cnc2c(=O)n(C)c(=O)n(C)c21
-5%	COc1ccc(-c2noc(CCCC(=O)Nc3ccc(C(N)=O)cc3)n2)cc1
0%	Cc1ccc2nc(-c3ccc(NC(=O)Cc4ccccc4)cc3)sc2c1

Arranged by value in VDR inh (low to high): six of the compounds above.
VDR inh	compound
-12%	CCN(CCn1cccn1)C(=O)c1cc(COc2cccc3cccnc23)on1
-8%	C/C(=N\NC(=O)c1ccncc1)c1ccc(N2CCOCC2)cc1
-7%	COCc1ccc(C(=O)N2CCCCC2C(=O)Nc2ccc(-n3nc(C)cc3C)cc2)o1 (centres undefined)
-2%	O=C(NCCOc1ccc(Cl)cc1)C(=O)NCC1CCCO1 (centres undefined)
0%	Cc1ccc2nc(-c3ccc(NC(=O)Cc4ccccc4)cc3)sc2c1
4%	O=C(Nc1ccc(Cc2ccncc2)cc1)c1cc([N+](=O)[O-])ccc1N1CCOCC1

(more compounds)
VDR inh	compound
-1%	Fc1nc(N2CCCC2)c(F)c(Oc2ccccc2Oc2c(F)c(F)nc(N3CCCC3)c2F)c1F
-11%	CN1CCN(CCNC(=O)c2cc3c(=O)n(C)c4ccccc4c3n2C)CC1
-20%	Cn1c(SCC(=O)c2ccc(F)cc2)nnc1-c1cnccn1
-14%	CS/C(N)=N/N=C/c1cc(C)ccc1O
-1%	COc1ccc(CC(=O)N2CCN=C2SC)cc1OC
-4%	CCOc1ccc(NCc2cccn2-c2nnc(N3CCC(C(=O)NCCCN4CC(C)CC(C)C4)CC3)s2)cc1 (centres undefined)
6%	Cc1ccc(Cc2nc3ccccc3nc2SCC(=O)NCc2ccc(F)cc2)cc1
16%	CC1C(c2ccccc2)N(C)C(c2ccccc2)CC1(O)c1ccc(F)cc1 (centres undefined)
-13%	CC1(C)CN(c2cccc(C#N)c2)C1=O
-1%	CN1CCc2c(sc3c2c(=O)n(-c2ccccc2)c2n[nH]c(=S)n32)C1
-6%	CC(/C=C/c1ccco1)=N\NC(=O)CNc1cccc(C)c1
-7%	CCOc1ccc(C(=O)OCC(=O)N2CC(C)OC(C)C2)cc1OCC (centres undefined)

Ordered by heavy-atom count (rising): some entries from above.
VDR inh	compound
-14%	CS/C(N)=N/N=C/c1cc(C)ccc1O
-1%	CN1CCc2c(sc3c2c(=O)n(-c2ccccc2)c2n[nH]c(=S)n32)C1
-7%	CCOc1ccc(C(=O)OCC(=O)N2CC(C)OC(C)C2)cc1OCC (centres undefined)
16%	CC1C(c2ccccc2)N(C)C(c2ccccc2)CC1(O)c1ccc(F)cc1 (centres undefined)
-1%	Fc1nc(N2CCCC2)c(F)c(Oc2ccccc2Oc2c(F)c(F)nc(N3CCCC3)c2F)c1F
-4%	CCOc1ccc(NCc2cccn2-c2nnc(N3CCC(C(=O)NCCCN4CC(C)CC(C)C4)CC3)s2)cc1 (centres undefined)

The listing continues.
VDR inh	compound
1%	CC(C)(C)c1ccc(NC(=O)C2=CC=CN3CCS(=O)(=O)N=C23)cc1
8%	Cc1ccc(CNC(=O)Cc2c(C(=O)O)c(C)cn2C)cc1
-12%	O=C(Cc1ccccc1)N/N=C/c1cc2c(cc1Cl)OCO2
-5%	CS(=O)(=O)c1ccc(Cl)c(NC(=O)COC(=O)c2cccc(S(=O)(=O)N3CCCCC3)c2)c1
17%	COc1cccc(C(=O)N(Cc2ccc(N(C)C)cc2)Cc2ccco2)c1
0%	Cc1cc(C)n(CC(=O)Nc2ccccc2)n1
-15%	N#C/C(=C\c1ccc(-c2ccc(Br)cc2)o1)C(=O)NCCc1c[nH]c2ccccc12
-15%	COc1ccc(/C=N/NC(=O)c2cc(-c3ccccc3OC(C)C)nc3ccccc23)cc1CN1CCOCC1
1%	COc1ccc(-n2nc(C(=O)NCc3ccco3)c3c4ccccc4n(C)c3c2=O)cc1
23%	O=C(Nc1nc2ccc(F)cc2s1)C1CCN(S(=O)(=O)c2cc([N+](=O)[O-])ccc2Cl)CC1
-12%	COc1ccc(NC(=O)c2ccc(OCC3CCCO3)cc2)cc1Cl (centres undefined)
8%	COc1ccccc1N1CCN(CCCNC(=O)c2cnn(-c3ccccc3)c2C2CCN(C(=O)OC(C)(C)C)CC2)CC1
-5%	Cc1ccc2c(cnn2C(=O)CCCC(=O)NC(C)c2ccccc2)c1 (centres undefined)
11%	Cc1c(CCOC(=O)c2ccccc2)sc[n+]1CC(=O)c1ccc(Br)cc1
-3%	Cc1nsc(Nc2ccccc2)c1C#N
-12%	Cc1ccccc1Nc1c(-c2c(F)cccc2Cl)nc2ccc(Br)cn12
-8%	C=CCn1cc(/C=N/Nc2nc3ccccc3[nH]2)c2ccccc21
-7%	COc1ccc(N2CC(C(=O)Nc3ccc([N+](=O)[O-])cc3Br)CC2=O)cc1 (centres undefined)
21%	NS(=O)(=O)c1ccc(NC(=O)CSc2nnc(-c3cnccn3)n2-c2ccccc2)cc1
-2%	O=C(O)[C@@H](O)[C@@H](O)[C@H](O)[C@H](O)CO
4%	CC(=O)OC(C#CCN1CCOCC1)c1ccccc1 (centres undefined)
0%	O=c1c2c3c(sc2nc(NCCO)n1Cc1ccco1)CCCCC3
3%	COc1ccc(NC(=O)CSc2nc3c(c(=O)n2-c2ccc(C)cc2)SCC3)c(OC)c1
-10%	O=C(NCCN1C(=O)S/C(=C\c2ccc(Cl)cc2)C1=O)c1ccc(F)c(S(=O)(=O)N2CCOCC2)c1

Rewritten bar-delimited: 3 of the compounds above.
mol | VDR inh
NS(=O)(=O)c1ccc(NC(=O)CSc2nnc(-c3cnccn3)n2-c2ccccc2)cc1 | 21%
O=C(O)[C@@H](O)[C@@H](O)[C@H](O)[C@H](O)CO | -2%
CC(=O)OC(C#CCN1CCOCC1)c1ccccc1 (centres undefined) | 4%

Following part.
VDR inh	compound
-25%	O=C(CN1CCC(NC(=O)C2CC2)CC1)Nc1ccccc1[N+](=O)[O-]
10%	CC(C)N1CCN(Cc2ccc3nsnc3c2)CC1CCO (centres undefined)
9%	Cc1ccccc1-c1cc(-c2ccccc2O)on1
-12%	CC1CCCC(C)N1CCCNC(=O)Cn1c(=O)c2cccn2c2cccnc21 (centres undefined)
12%	O=C1CCC([N+](=O)[O-])C(c2cc3c(cc2Br)OCO3)N1 (centres undefined)
-3%	COc1ccc(CNC(=O)C(C)OC(=O)c2cccn2C)cc1 (centres undefined)
11%	Cc1ccc(/C=N/N=C2/NC(=O)CS2)o1
18%	CCN1CCN(CCNC(=O)CSCc2nc(-c3ccc(OC)c(OC)c3)oc2C)CC1
-9%	CC(C(=O)N=c1sc2ccccc2n1C)N1C(=O)C2CC=CCC2C1=O (centres undefined)
-12%	Cc1ccc(-c2noc(CN(C(=O)c3cccc(Br)c3)C(C)C)n2)cc1
13%	CCOC(=O)C(C)Oc1c(Br)cc(C2NC(=O)NC(C)=C2C(C)=O)cc1OCC (centres undefined)
-5%	CCCn1c(=N)n(CC(O)COc2cccc(C)c2)c2ccccc21 (centres undefined)
17%	CCCN(C(=O)c1ccccc1N)c1c(C)n(C)n(-c2ccccc2)c1=O
4%	Cc1ccc(NC(=O)Cc2coc3ccc(C(C)C)cc23)c(C)c1
4%	CC(OC(=O)c1cccc(-n2cnnn2)c1)C(=O)Nc1ccc(F)c(F)c1F (centres undefined)
-15%	COc1ccc(NC2=NC(=S)N(c3ccc(C)cc3)C23CCCCC3)cc1
3%	CCCNC(=O)c1ccc(N2CCC3(CC2)CC(c2cccc(Br)c2)=NO3)c([N+](=O)[O-])c1
-15%	C1CCC(c2nn3c(-c4n[nH]c5c4CCC5)nnc3s2)CC1
-14%	CCN(CC)C(=O)c1sc(N)c(C(=O)OC(C)C)c1C
12%	CC(C)Oc1ccc(C(=O)N2CCCC2C(=O)O)cc1 (centres undefined)
-16%	CCOC(=O)CSc1ccc(C(=O)N2CCN(C)CC2)cc1[N+](=O)[O-]
-9%	CCOC(=O)N1CCN(CC(=O)c2ccc(O)c(C)c2O)CC1
4%	CC(=O)c1cccc(NC(=O)Cn2nc(C(F)(F)F)c3c2CCC3)c1
1%&4%	COc1ccc(C(=O)Nc2nnc(S(=O)(=O)N3CCC(C)CC3)s2)cc1OC
4%	O=C(Nc1ccccc1SCC1CSc2nc3ccccc3c(=O)n21)c1ccccc1Cl (centres undefined)
4%	Cc1cccc2c(C(=O)Nn3cnnc3)cc(-c3ccccc3Cl)nc12
-1%	COc1ccc(S(=O)(=O)N2CCCOC2CNC(=O)C(=O)NCc2ccncc2)cc1 (centres undefined)
-18%	Cc1cc(S(=O)(=O)Nc2cccc(C(=O)O)c2)c(C)c(S(=O)(=O)c2ccccc2)c1
8%	Cc1cc(C)nc(NS(=O)(=O)c2ccc(NC(=O)C3CC(=O)N(c4ccccc4)C3)cc2)n1 (centres undefined)
12%	Cc1ccc(-c2nn(-c3cccc(F)c3)cc2CNCCc2ccncc2)o1
4%	O=C(Nc1ccc(C(=O)OCc2cc(=O)n3c4c(sc3n2)CCCC4)cc1)c1ccccc1
-5%	COCCNC(=O)c1cc2oc3ccccc3c2n1C
-4%	CCOc1cc(-c2nc3ccccn3c2NCC2CCCO2)ccc1O (centres undefined)
10%	COc1ccc(-n2c(SCC(=O)Nc3ccccc3)nc3c(c2=O)SCC3)cc1
7%	Cc1nn(CCOc2cccc(Br)c2)c(C)c1[N+](=O)[O-]
7%	C=C1CCC(OC(C)=O)C2(C)CCC3C(C)C(=O)OC3C12O (centres undefined)
15%	CC(=O)NC(=S)Nc1sc2c(c1C(N)=O)CCC(C)C2 (centres undefined)
-3%	O=c1c(S(=O)(=O)c2ccc(Cl)cc2)cn(Cc2ccc(F)cc2)c2ccc(F)cc12
5%	CC(=O)Oc1ccc(N(C(C)=O)S(=O)(=O)c2cccs2)c2ccccc12
-13%	Cc1cccc(NC(=O)c2sc3nc4c(cc3c2N)CN(C(C)C)CC4)c1
-9%	CC(=O)Nc1ccc(S(=O)(=O)C(C#N)c2nc3ccccc3nc2NCCN2CCOCC2)cc1 (centres undefined)
19%	CCc1ccc(NC(=S)N(CCN2CCOCC2)Cc2ccccc2F)cc1
-2%	O=C(C1CCN(S(=O)(=O)c2ccc(Br)s2)CC1)N1CCN(c2cccc(C(F)(F)F)c2)CC1
-21%	Cc1c(C(=O)OCC(=O)Nc2c(C)n(C)n(-c3ccccc3)c2=O)oc2ccccc12
-6%	Cc1cc(C)c2c(SC(C)C)nc(N)nc2n1
10%&3%	CCC(C)Sc1nc2c([nH]c3ccccc32)c(=O)n1C (centres undefined)
15%	O=C(Cn1nnc(-c2cccc(C(F)(F)F)c2)n1)NCc1ccc(F)cc1
0%	O=C(Nc1ccc(F)cc1)C1CCN(S(=O)(=O)c2cccs2)CC1

A portion of the library (hit frequency here may not be typical).
